Screening data from PubChem BioAssay.
CtBP-E1A inh = inhibitors of CtBP/E1A interaction; AlphaScreen GST-E1A/His-CtBP binding, 1536-well; hits give low values; control for the full effect not named in the record; activity change, % (no concentration beside the values); 340,000 compounds, 0.49% hits; AID 651724; in the data active means activity change below about -65%; inconclusive means about -30% to -65%; inactive means above about -30%; further: on the % scale 0 is the no-effect control and ±100 the full control effect
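Homogeneous bead-based format: GST-tagged E1A captured on glutathione donor beads, His-tagged CtBP on nickel acceptor beads; compounds precede bead addition by 2 h at 37 °C.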
Sfp PPTase inh = inhibitors of Bacillus subtilis Sfp phosphopantetheinyl transferase | Q9F4F7 | Biochemical Sfp PPTase activity, qHTS | Potency, µM, for the others: max response, negative = inhibition, actives largely listed as inhibitors | 310,000 compounds, 3.5% hits | AID 1490; active means well fitted inhibition curve with a large enough effect; inconclusive means small, poorly fitted or top-dose-only effect, or another doubt; inactive means no such curve, though single readings can be large or run the other way;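 further: the enzyme is Sfp with the accession as filed and its product quenches rhodamine fluorescence; potency means the concentration at half of the fitted maximal effect; 0% = enzyme reaction without inhibitor and -100% = no enzyme wells; top concentration of the series not given in the record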
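After 15 min at room temperature with compound, 15 nM Sfp received 5 uM rhodamine-CoA plus 12.5 uM BHQ-2-ybbR (50 mM Hepes pH 7.6, 10 mM MgCl2). Rate came from the fluorescence difference over 30 min, ex 525/em 598 nm.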
Menin-MLL FL inh = menin-MLL binding inhibition, fluorescein peptide; Fluorescence polarization, fluorescein-MLL peptide displacement from menin; FP activity change, % at 61.4 µM; 290,000 tested, under 10 active; inconclusive = falling polarisation curve, or a change in total fluorescence; inactive = total fluorescence flat and polarisation flat or rising; no compound was filed as active; the % refers to the polarisation; negative = inhibition;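 further: % of control where 0% means no effect; inhibitors lower the polarisation; unlabelled MLL peptide was the positive control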
gsp antagonist = antagonists of gsp mutant (McCune-Albright syndrome); gsp-mutant cells, cAMP HTRF, 30 min; control for the full effect not named in the record; Potency, µM (doses to about 76.9 µM), for inactives: top-dose activity change, negative = inhibition, usual class: inhibitors; 340,000 compounds, 0.4% hits; AID 624288; active = falling curve of any shape with a large fitted effect; inconclusive = falling curve, mostly with a smaller effect; inactive = flat or rising curve; cell line not stated here;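 further: intracellular cAMP measured with PDE inhibitor Ro 20-1724 present during compound exposure; potency means the concentration at half of the fitted maximal effect; on the % scale 0 is the no-effect control and ±100 the full control effect; nearly all actives have a fitted effect of over 65% in size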
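G418-selected cells were plated in DMEM/10% FBS for 16-24 h at 37C, then treated with compounds plus the PDE inhibitor […] (300 uM solution added) for 30 min at 37C. Intracellular cAMP was measured by HTRF after 30 min lysis at room temperature.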
gsp ag = gsp mutant agonism | AID 624287 | Potency, µM (highest dose often 76.9 µM), for inactives: at the top dose activation (cAMP increase), hits mostly activators | 340,000 compounds, 0.13% hits | gsp mutant cells, cAMP HTRF, 30 min; control for the full effect not named in the record; active = well fitted activation curve with a large enough effect; inconclusive = small, poorly fitted or top-dose-only effect, or another doubt; inactive = no such curve, though single readings can be large or run the other way; cell line not stated here;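 further: phosphodiesterase inhibitor Ro 20-1724 added with compounds to block cAMP breakdown; potency means the concentration at half of the fitted maximal effect; nearly all actives have a fitted effect of over 60% in size; about a fifth of the inactives were tested at one dose only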
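Cells stably selected in G418 were plated at 2000/well, grown 16-24 hr, then given compounds in DMSO with the PDE inhibitor […] (300 uM solution added) for 30 min at 37C; cAMP was read by HTRF.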
TRPV1 potentiator = enhances activation of the human vanilloid receptor TRPV1; Q8NER1; TRPV1-expressing cells, Fluo-8 calcium influx, capsaicin EC20 potentiation; host cell line not named in the record; control for the full effect not named in the record; potentiation, % at 8.33 µM; 320,000 compounds, 0.02% hits; active means potentiation above 80%; inconclusive means 30% to 80%; inactive means below 30%; further: 0% is about no effect
Target sequence (Q8NER1 whole entry, looked up): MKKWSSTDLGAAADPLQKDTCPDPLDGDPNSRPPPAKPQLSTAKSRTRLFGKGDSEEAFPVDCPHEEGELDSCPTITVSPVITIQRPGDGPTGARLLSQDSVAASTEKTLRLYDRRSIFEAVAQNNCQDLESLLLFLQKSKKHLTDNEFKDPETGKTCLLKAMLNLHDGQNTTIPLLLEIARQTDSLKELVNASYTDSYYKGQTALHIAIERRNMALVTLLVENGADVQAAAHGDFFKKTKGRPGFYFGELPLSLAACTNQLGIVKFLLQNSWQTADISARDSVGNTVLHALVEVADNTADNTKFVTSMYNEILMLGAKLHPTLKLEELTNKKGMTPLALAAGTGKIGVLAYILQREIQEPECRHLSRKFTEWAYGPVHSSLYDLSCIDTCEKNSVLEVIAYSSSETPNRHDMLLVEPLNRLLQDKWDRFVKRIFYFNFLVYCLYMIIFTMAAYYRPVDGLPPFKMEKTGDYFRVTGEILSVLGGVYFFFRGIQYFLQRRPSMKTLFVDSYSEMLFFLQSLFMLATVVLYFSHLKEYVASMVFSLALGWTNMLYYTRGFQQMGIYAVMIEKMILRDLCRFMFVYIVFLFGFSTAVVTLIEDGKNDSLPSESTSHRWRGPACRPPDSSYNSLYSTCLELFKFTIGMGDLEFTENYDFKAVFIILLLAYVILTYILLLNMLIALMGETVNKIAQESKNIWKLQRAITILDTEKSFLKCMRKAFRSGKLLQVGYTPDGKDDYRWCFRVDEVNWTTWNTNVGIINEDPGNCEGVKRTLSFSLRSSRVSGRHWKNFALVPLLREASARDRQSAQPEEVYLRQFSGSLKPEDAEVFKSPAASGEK
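TRPV1-expressing cells were cultured overnight at 35.5C and loaded with Fluo-8 calcium dye for 40 to 90 min at room temperature. After a 10 s baseline, compound was added and calcium influx was read kinetically for 3 min (ex 480/em 520 nm).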
ClpP mod = qHTS Assay for Activators of ClpP | ATP-dependent Clp protease proteolytic subunit (Bacillus subtilis (strain 168)), P80244 | purified B. subtilis ClpP, FRET peptide cleavage, 20 min | Potency, µM (highest dose often 57.5 µM), without a hit: at the top dose activity change, negative = active | 340,000 compounds, 1.9% hits; active = well fitted falling curve with a large enough effect; inconclusive = small, poorly fitted or top-dose-only effect; inactive = no such curve, though single readings can be large or run the other way; further: potency means the concentration at half of the fitted maximal effect; the source files actives as falling curves though it sought activators and does not explain the sign; nearly all actives have a fitted effect of over 65% in size; many hits overshoot -100%
Target sequence (P80244 whole entry, looked up): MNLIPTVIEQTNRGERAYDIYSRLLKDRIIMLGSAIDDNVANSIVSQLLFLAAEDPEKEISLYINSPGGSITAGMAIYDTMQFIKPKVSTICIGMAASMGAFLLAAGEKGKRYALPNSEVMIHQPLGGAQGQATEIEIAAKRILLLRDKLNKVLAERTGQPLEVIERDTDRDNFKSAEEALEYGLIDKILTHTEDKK
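ClpP 10 microg/mL final, pH 8 Tris/KCl buffer with BSA, glycerol, Tween-20; compound pinned in; FRET-FV substrate; RT 20 min; Ex320/Em430; ΔFRET vs ADEP 5.8 microM, DMSO, no enzyme.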
Starred values were filed as active, the others as inactive; ? = inconclusive; . = not tested or not shown; [ ] = dose if it differs, or a comment.

SMILES	CtBP-E1A inh	Sfp PPTase inh	Menin-MLL FL inh	gsp antagonist	gsp ag	TRPV1 potentiator	ClpP mod
Cc1cccc(NC(=O)Nc2cccc3ccccc23)c1	4	13%	.	3%	1%	2	-10%
Cc1ccc(OCc2nnc(SCC(=O)NCc3ccco3)n2C)cc1	0	13%	5.6	-6%	-4%	9	-0.9%
CCc1ccc(OCc2nnc(SCCN3CCOCC3)n2CC)cc1	-5	-21%	2.5	2%	1%	12	-1.6%
Cc1ccccc1NC(=S)N1CCC(NC(=O)c2ccco2)CC1	-2	10%	-3.2	-3%	29%	-1	-0.8%
O=c1cc(/N=C/c2coc3c(ccc4ccccc43)c2=O)[nH]c(=S)[nH]1	.	1%	-1.1	?	-59%[inhibitor]	-7	0.3%
Cc1ccc(C)c(N2CCN(C(=O)CCS(=O)(=O)c3ccc4c(c3)CCN4C(=O)C3CC3)CC2)c1	-8	-7%	.	-15%	9%	5	-1.2%
c1ccc2cc(CSCc3nc4ccccc4[nH]3)ccc2c1	-18	20%	-0.5	?	-12%	0	3.2%
O=C1C(Cl)=C(N2CCOCC2)C(=O)N1c1cccc(C(F)(F)F)c1	1	-1%	5.8	-4%	-4%	-16	.
C=CCNC(=O)c1cccc2c1C(=O)c1ccc(N3CCOCC3)cc1S2(=O)=O	3	.	.	4%	.	.	-0.3%
CC(C)c1nc(NCc2ccccc2)c(C#N)c2c1CCCC2	2	9%	-4.2	1%	-4%	-31	8.9µM*
CCN(CC(=O)Nc1cc(Cl)ccc1C)C(=O)c1oc2ccc(OC)cc2c1C	-17	.	.	-6%	-14%	-4	-3.8%
Cc1cc(OCC(=O)N2CCCC2)cc(C)c1Cl	3	1%	1.2	-31%	-1%	-9	-0.3%
CCOc1ccc2nc(SC3CC(=O)N(c4cccc(OC)c4)C3=O)sc2c1 (stereo not given)	0	-10%	3.8	-13%	35%	2	-0.8%
COc1cc(/C(C#N)=C/c2ccccc2)c([N+](=O)[O-])cc1OC	-3	-14%	1.2	?	-27%	?	1.1%
COCCN1CCN(C(=O)C2CCC(=O)N(Cc3ccccc3F)C2)CC1 (stereo not given)	4	7%	.	9%	2%	8	-0.5%
CC(C)C(NC(=O)c1ccc2c(c1)OCO2)C(=O)N/N=C/c1cccs1 (stereo not given)	-5	-13%	7.5	8%	2%	?	0.4%
O=C(N/N=C/C=C/c1ccc2c(c1)OCO2)C(O)c1ccccc1 (stereo not given)	-15	-13%	2.7	-11%	15%[15.4 µM]	-17	-3.5%
C/C(=N\NC(=O)Cc1csc(N2CCOCC2)n1)c1ccccc1	-1	-9%	3.8	-19%	-6%	-1	-0.9%
CC(NC(=O)CCNS(=O)(=O)c1ccc2c(c1)c(=O)n(C)c(=O)n2C)c1ccccc1 (stereo not given)	-25	16%	2.8	-4%	9%	3	-9.0%
COc1ccc(OC)c(-n2nnnc2SCC(=O)Nc2cc(C)ccc2OC)c1	0	6%	-0.5	-3%	-8%	17	0.5%

Taken from the results shown, 17 compounds:
SMILES	CtBP-E1A inh	Sfp PPTase inh	Menin-MLL FL inh	gsp antagonist	gsp ag	TRPV1 potentiator	ClpP mod
Cc1ccccc1NC(=S)N1CCC(NC(=O)c2ccco2)CC1	-2	10%	-3.2	-3%	29%	-1	-0.8%
O=c1cc(/N=C/c2coc3c(ccc4ccccc43)c2=O)[nH]c(=S)[nH]1	.	1%	-1.1	?	-59%[inhibitor]	-7	0.3%
Cc1ccc(C)c(N2CCN(C(=O)CCS(=O)(=O)c3ccc4c(c3)CCN4C(=O)C3CC3)CC2)c1	-8	-7%	.	-15%	9%	5	-1.2%
c1ccc2cc(CSCc3nc4ccccc4[nH]3)ccc2c1	-18	20%	-0.5	?	-12%	0	3.2%
O=C1C(Cl)=C(N2CCOCC2)C(=O)N1c1cccc(C(F)(F)F)c1	1	-1%	5.8	-4%	-4%	-16	.
C=CCNC(=O)c1cccc2c1C(=O)c1ccc(N3CCOCC3)cc1S2(=O)=O	3	.	.	4%	.	.	-0.3%
CC(C)c1nc(NCc2ccccc2)c(C#N)c2c1CCCC2	2	9%	-4.2	1%	-4%	-31	8.9µM*
CCN(CC(=O)Nc1cc(Cl)ccc1C)C(=O)c1oc2ccc(OC)cc2c1C	-17	.	.	-6%	-14%	-4	-3.8%
Cc1cc(OCC(=O)N2CCCC2)cc(C)c1Cl	3	1%	1.2	-31%	-1%	-9	-0.3%
CCOc1ccc2nc(SC3CC(=O)N(c4cccc(OC)c4)C3=O)sc2c1 (stereo not given)	0	-10%	3.8	-13%	35%	2	-0.8%
COc1cc(/C(C#N)=C/c2ccccc2)c([N+](=O)[O-])cc1OC	-3	-14%	1.2	?	-27%	?	1.1%
COCCN1CCN(C(=O)C2CCC(=O)N(Cc3ccccc3F)C2)CC1 (stereo not given)	4	7%	.	9%	2%	8	-0.5%
CC(C)C(NC(=O)c1ccc2c(c1)OCO2)C(=O)N/N=C/c1cccs1 (stereo not given)	-5	-13%	7.5	8%	2%	?	0.4%
O=C(N/N=C/C=C/c1ccc2c(c1)OCO2)C(O)c1ccccc1 (stereo not given)	-15	-13%	2.7	-11%	15%[15.4 µM]	-17	-3.5%
C/C(=N\NC(=O)Cc1csc(N2CCOCC2)n1)c1ccccc1	-1	-9%	3.8	-19%	-6%	-1	-0.9%
CC(NC(=O)CCNS(=O)(=O)c1ccc2c(c1)c(=O)n(C)c(=O)n2C)c1ccccc1 (stereo not given)	-25	16%	2.8	-4%	9%	3	-9.0%
COc1ccc(OC)c(-n2nnnc2SCC(=O)Nc2cc(C)ccc2OC)c1	0	6%	-0.5	-3%	-8%	17	0.5%

(next part)
SMILES	CtBP-E1A inh	Sfp PPTase inh	Menin-MLL FL inh	gsp antagonist	gsp ag	TRPV1 potentiator	ClpP mod
Cc1ccc(-c2csc3nc[nH]c(=O)c23)cc1C	2	-1%	3.2	0%	-55%[inhibitor]	-9	.
O=C1COc2ccc(C(=O)COc3ccc(Cl)cc3Br)cc2N1	2	.	.	0%	3%	11	0.5%
Cc1ccc(N(C(=O)CS(=O)CC(=O)Nc2ccc(F)cc2)C(C(=O)NC2CCCCC2)c2ccco2)cc1 (stereo not given)	-4	16%	0.1	1%	-1%	?	0.6%
Cc1nnnn1-c1cccc(C(=O)O)c1	4	20%	-0.7	3%	-44%[inhibitor]	17	0.4%
O=C(CNC(=O)c1nc[nH]c1C(=O)N1CCN(c2ccccc2)CC1)OCc1ccccc1	-2	10%	2.9	3%	-18%	8	-0.3%
CC(C)c1ccccc1NC(=O)C1CN(S(=O)(=O)c2ccccc2)CCN1S(=O)(=O)c1ccccc1 (stereo not given)	9	-7%	3.6	-9%	1%	5	.
CC(=O)Nc1ccc(SCC(=O)c2cc(C)n(C)c2C)cc1	-6	18%	0.9	-7%	-11%	-4	-0.4%
COc1ccc(C2CC(=O)N(CCCN(C)CCc3ccc(OC)c(OC)c3)C2)cc1 (stereo not given)	.	?	2.8	-7%	20%	5	-1.8%
CCC(OC(=O)c1cccs1)C(=O)NCc1ccco1 (stereo not given)	8	-8%	6.0	-5%	0%	-3	-1.2%
CSCCC(NS(=O)(=O)c1ccc(Cl)cc1)C(=O)OCc1cccc(Cl)c1 (stereo not given)	-2	10%	2.5	-12%	-12%	0	1.1%
O=C(C1CC(=O)N(c2ccc(F)cc2)C1)N1CCCCCC1 (stereo not given)	-10	2%	-0.2	2%	0%	?	.
COCCSc1nnc(NC(=O)c2ccc(OC)c([N+](=O)[O-])c2)s1	.	-4%	1.4	-5%	27%	?	-0.9%
Cc1ccc(NC(=O)C(C)SCc2ccccc2)cc1 (stereo not given)	.	-1%	-1.2	-11%	-30%	-2	1.6%
CC1CCCC(NC(=O)COC(=O)c2ccc(Br)o2)C1C (stereo not given)	.	.	.	-6%	23%	.	-2.3%
Cc1cc(C(=O)OCC(=O)N(C)c2ccccc2)c2ccccc2n1	0	.	.	-19%	14%	.	-9.0%
O=C(CCC(=O)NCCO)NCCO	4	11%	-0.5	10%	-18%	-2	.
CCOC(=O)CNC(=O)OC1CCN2Cc3ccccc3N=C12 (stereo not given)	-2	-9%	-18	16%	-3%[15.4 µM]	8	5.4%
O=C(CN1C(=O)c2cccc3cccc1c23)Nc1ccccc1C(=O)NCc1ccco1	3	.	.	-2%	0%	.	-7.9%
CC(C)COc1cccc(C(=O)Nc2cc(S(=O)(=O)N3CCOCC3)ccc2N2CCCC2)c1	11	.	.	-8%	17%	.	-7.7%
Cc1nnc2sc(-c3cccc4ccccc34)nn12	3	-5%	1.5	5%	0%	-12	22µM*
CCOc1cc(S(=O)(=O)NCCCN2CCOCC2)ccc1F	0	16%	.	11%	-20%	0	1.2%
CCOc1cc(/C=N/NC(=O)c2ccncc2)ccc1OS(C)(=O)=O	10	14%	1.2	-3%	-14%	-15	1.3%
COCCOC(=O)C1=C(C)NC(=O)NC1c1c(F)cccc1Cl (stereo not given)	-5	17%	-3.1	8%	-47%[inhibitor]	-10	-0.8%
COC(=O)C1=C(C)N(c2ccc(Cl)cc2)/C(=C/c2cccs2)C1=O	-3	6%	.	-3%	1%	-20	-2.0%
CCN(CC)CCNC(=O)c1cc2c(-c3ccc(Cl)cc3)nn(C)c2s1	?	-3%	-1.4	8%	?	11	4.7%
CSc1nnc(-c2ccc(Cl)cc2Cl)o1	3	10%	0.8	2%	?	-7	-0.9%
CC(OC(=O)C1=Cc2ccccc2OC1)C(=O)NCC1CCCO1 (stereo not given)	-8	.	.	-17%	2%[15.4 µM]	.	.
CCCCNc1c(-c2cccc(-c3cc(C(C)=O)cs3)c2)nc2cc(C)ccn12	?	.	.	32µM*	22%	?	-8.9%

Single records (already shown). Values in the order: CtBP-E1A inh	Sfp PPTase inh	Menin-MLL FL inh	gsp antagonist	gsp ag	TRPV1 potentiator	ClpP mod
CC(OC(=O)C1=Cc2ccccc2OC1)C(=O)NCC1CCCO1 (stereo not given) is listed as -8	.	.	-17%	2%[15.4 µM]	.	.
CCOc1cc(/C=N/NC(=O)c2ccncc2)ccc1OS(C)(=O)=O is listed as 10	14%	1.2	-3%	-14%	-15	1.3%
